Lassa entry inh: qHTS for Inhibitors of binding or entry into cells for Lassa Virus; Lassa virus pseudotype entry inhibition, cell reporter; control for the full effect not named in the record; Potency, µM (doses to about 37.9 µM), for the others: at the highest dose activity change, negative = inhibition, actives largely listed as inhibitors; actives 1.2% (n = 300,000); active means well fitted inhibition curve with a large enough effect; inconclusive means small, poorly fitted or top-dose-only effect, or effect the other way; inactive means flat fitted curve, though single readings scatter; tested in HEK293 cells; further: on the % scale 0 is the no-effect control and ±100 the full control effect; nearly all actives have a fitted effect of over 50% in size; luciferase read-out
NS1 function inh: qHTS Assay for Inhibitors of Influenza NS1 Protein Function; S. cerevisiae slowed by influenza A NS1, growth recovery by OD600; Potency, µM (series often up to 46.1 µM), for inactives: at the top dose activity, positive = more growth; actives 0.4% (n = 270,000); further: actives are rising curves; nearly all actives have a fitted effect of over 50% in size
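In this qHTS, NS1 from influenza A is expressed in budding yeast, where it slows growth. Cells are switched from glucose to 2% galactose medium (pH 6.0, -URA), treated with compound, and growth recovery is read at OD600.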
RE007 growth inh: qHTS Assay for Inhibitors of the HIV-1 protein Vpr | S. pombe RE007 Vpr strain, BacTiter-Glo ATP luminescence, 24 h; control for the full effect not named in the record | Potency, µM (top dose mostly 92.2 µM), for the others: top-dose activity change, negative = less growth | actives 0.21% (n = 360,000) | AID 651644, 2012; active = well fitted falling curve with a large enough effect; inconclusive = small, poorly fitted or top-dose-only effect; inactive = no such curve, though single readings can be large or run the other way;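 further: on the % scale 0 is the no-effect control and ±100 the full control effect; nearly all actives have a fitted effect of over 50% in size; the assay follows cell death caused by Vpr and the record does not say whether a fall means rescue or toxicity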
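Fission yeast RE007 carrying one integrated HIV-1 vpr copy, seeded at OD 0.01 in PMG+AL medium with 23 nL pinned compound. Grown 24 h at 30 degrees; viability read by BacTiter-Glo luminescence after 5 min.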
Cruzain inh Det: qHTS Assay for Promiscuous and Specific Inhibitors of Cruzain (with detergent). Cruzipain (Trypanosoma cruzi), P25779. purified cruzain, Z-FR-AMC fluorescence, 0.01% Triton. Potency, µM, inactives show max response, negative = inhibition, hits mostly inhibitors. actives 0.43% (n = 200,000); active means well fitted curve in the direction sought with a large enough effect; inconclusive means small, poorly fitted or top-dose-only effect, or another doubt; inactive means no such curve, though single readings can be large; an effect the other way counts as inactive or inconclusive;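 further: plate controls were neutral wells for no effect and buffer without enzyme for full effect; nearly all actives have a fitted effect of over 40% in size; top concentration of the series not given in the record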
Target sequence (P25779 123-467 limits assumed): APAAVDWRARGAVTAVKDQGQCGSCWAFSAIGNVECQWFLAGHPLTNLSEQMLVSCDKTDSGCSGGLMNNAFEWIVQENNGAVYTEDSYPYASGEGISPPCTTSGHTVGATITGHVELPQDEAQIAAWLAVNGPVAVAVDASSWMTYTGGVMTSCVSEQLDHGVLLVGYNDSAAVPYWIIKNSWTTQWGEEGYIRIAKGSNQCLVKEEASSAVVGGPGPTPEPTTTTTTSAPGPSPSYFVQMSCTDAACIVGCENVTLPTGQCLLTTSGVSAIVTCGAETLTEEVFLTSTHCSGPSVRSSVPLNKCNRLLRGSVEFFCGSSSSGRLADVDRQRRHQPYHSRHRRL
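Read-out: AMC fluorescence (360 nm excitation, 450 nm emission), four reads over 2 min, first-to-third difference used. Conditions: cruzain 1.5 nM, Z-FR-AMC 2 uM, pH 5.5 acetate, 5 mM DTT, 0.01% Triton X-100.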
Cruzain inh noDet: qHTS Assay for Promiscuous and Specific Inhibitors of Cruzain (without detergent). Cruzipain (Trypanosoma cruzi), P25779. purified cruzain, Z-FR-AMC fluorescence, no detergent. Potency, µM, without a hit: max response, negative = inhibition, actives largely listed as inhibitors. actives 2.3% (n = 200,000). AID 1476, 2009; active means well fitted curve in the direction sought with a large enough effect; inconclusive means small, poorly fitted or top-dose-only effect, or another doubt; inactive means no such curve, though single readings can be large; an effect the other way counts as inactive or inconclusive;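 further: plate controls were enzyme without inhibitor for no effect and buffer without enzyme for full effect; nearly all actives have a fitted effect of over 40% in size; top concentration of the series not given in the record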
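Purified cruzain at 1.5 nM, pre-incubated 15 min with compound at room temperature in 100 mM sodium acetate pH 5.5, 5 mM DTT, 0.00005% Triton X-100. Reaction started with 2 uM Z-FR-AMC; AMC fluorescence increase over 60 s gives rate.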
2A StopGo: High Throughput Screening for Foot and Mouth Disease Virus Antivirals. human cells with a luciferase reporter of 2A StopGo recoding; control for the full effect not named in the record. actives 1.2% (n = 410,000). Potency, µM (doses to about 57.9 µM), for inactives: at the highest dose signal change, negative = less light; active = well fitted falling curve with a large enough effect; inconclusive = small, poorly fitted or top-dose-only effect; inactive = no such curve, though single readings can be large or run the other way; tested in HEK293T cells; further: on the % scale 0 is the no-effect control and ±100 the full control effect; nearly all actives have a fitted effect of over 45% in size; luciferase light after 4 h
SARS PLpro yeast: qHTS of Yeast-based Assay for SARS-CoV PLP; Potency, µM (titrated, usually from 32.9 µM), for inactives: top-dose activity, positive = growth rescue; AID 485353, 2010; actives 0.19% (n = 330,000); S. cerevisiae expressing SARS-CoV PLpro, growth rescue; control for the full effect not named in the record; further: 0% is about no effect; nearly all actives have a fitted effect of over 55% in size; growth read by luminescence after 48 h
Marburg entry inh: qHTS for inhibitors of binding or entry into cells for Marburg Virus | Marburg virus pseudotyped entry inhibition, cell reporter; control for the full effect not named in the record; about a third of the inactives were read at about 46 µM | Potency, µM (titrated, usually from 37.8 µM), without a hit: top-dose activity change, negative = inhibition, hits mostly inhibitors | actives 1.8% (n = 300,000); active = well fitted inhibition curve with a large enough effect; inconclusive = small, poorly fitted or top-dose-only effect, or effect the other way; inactive = flat fitted curve, though single readings scatter; tested in HEK293 cells; about a fifth of its hits are not listed in these tables; further: on the % scale 0 is the no-effect control and ±100 the full control effect; luciferase read-out
The depositor's hits bear a star; ? = inconclusive; · = no result given; [ ] = remark or other dose. Unless noted, the call rests on the fitted dose curve; in most records, active means well fitted rising curve with a large enough effect; inconclusive means small, poorly fitted or top-dose-only effect; inactive means no such curve, though single readings can be large or run the other way. Potency means the concentration at half of the fitted maximal effect.

SMILES	Lassa entry inh	NS1 function inh	RE007 growth inh	Cruzain inh Det	Cruzain inh noDet	2A StopGo	SARS PLpro yeast	Marburg entry inh
CCCN1CCC(=O)N([C@H](CSc2ccccc2)c2ccccc2)CC1	·	9%	-1%	·	·	62%[activator]	-7%	·
COc1ccc(C(=O)CC(Nc2ccc([N+](=O)[O-])cc2)c2ccc(OC)cc2)cc1 (stereo unspecified)	?	?	-5%	-0.6%	?	4%	-6%	-25%
O=C(CCCOc1ccc(Cl)cc1Cl)NN1CCOCC1	-3%	2%	1%	-2.6%	10%	2%	-12%	14%
Cc1cc(C)n(C(=O)c2ccc(S(=O)(=O)NCC3CCCO3)cc2)n1 (stereo unspecified)	9%	-5%	-2%	-0.9%	-9%	-16%	0%	?
CCCNC(=S)N1CCN(Cc2ccc3c(c2)OCO3)CC1	17%[46.1 µM]	-5%	3%	·	·	-15%	0%	2%[46.1 µM]
CCOc1cc(C(=O)OC(C)C(=O)Nc2ccc(NC(C)=O)cc2)ccc1OCC(=O)N1CCCCC1 (stereo unspecified)	5%	-4%	-1%	·	·	3%	-8%	19%
CC(C)Cc1nc(N2CCN(C(=O)C(C)C)CC2)c(C#N)c2c1CCC2	?	-50%	6%	-0.8%	-26%	?	-1%	?
COc1cccc(NC(=O)C(Sc2nc3ccccc3c(=O)n2CC(C)C)c2ccccc2)c1 (stereo unspecified)	1%	28%	3%	-1.8%	5µM*	-18%	8%	14%[46.1 µM]
c1ccc2c(c1)CC(N1CCCCC1)c1ccccc1N2 (stereo unspecified)	-1%	2%	3%	0.2%	-7%	-15%	?	-18%
Cc1cc2nc(-c3cccc(NC(=O)C(C)C)c3C)oc2cc1C	-9%[46.1 µM]	·	·	1.6%	0%	-8%	·	·
CC(C)N(Cc1cnn(C)c1)Cc1nc(Cc2ccccc2Cl)no1	-17%[46.1 µM]	-3%	5%	·	·	-19%	-1%	7%[46.1 µM]
O=C(Cn1ncc2c3ccccc3n(Cc3ccccc3)c2c1=O)N1CCN(c2ncccn2)CC1	?	-11%	7%	-4.6%	?	?	-1%	?
O=C(NCc1ccco1)C1CCCN(S(=O)(=O)c2cc(Cl)ccc2Cl)C1 (stereo unspecified)	4%[46.1 µM]	11%	3%	·	·	-11%	10%	0%[46.1 µM]
Cc1cc(C)n2nc(C(=O)OC(C)C(=O)c3ccccc3)nc2n1 (stereo unspecified)	-4%	·	-7%	·	·	-10%	2%	27%
COc1ccc(S(=O)(=O)Cc2ccc(C(=O)N3CCN(C(=O)c4ccco4)CC3)o2)cc1	·	?	-4%	-0.2%	-2%	-17%	6%	·
COc1ccccc1C(c1nnnn1CS(=O)(=O)c1ccc(C)cc1)N1CCSCC1 (stereo unspecified)	-17%	1%	-2%	0.8%	-1%	13%	-1%	?
COc1ccc(OC)c(-c2nnc3n(CCc4ccccc4)c(=O)c4ccccc4n23)c1	-9%[46.1 µM]	·	·	-15%	-4%	-7%	·	-9%[46.1 µM]
C/C(=N/NC(=O)c1ccccn1)c1c[nH]c2ccccc12	·	3%	-5%	·	·	58%[activator]	0%	·
CC(OCC(O)CN1CCCCC1CCO)c1ccc(Cl)cc1 (stereo unspecified)	?	9%	-1%	·	·	3%	4%	-2%[46.1 µM]
Cn1c(Cn2c(=O)sc3ccccc32)nnc1SCc1ccc(F)cc1	·	-25%	-7%	-2.3%	-1%	-15%	-24%	·
CCOc1ccccc1N(CC(=O)N1CCc2ccccc2C1)S(C)(=O)=O	·	1%	-8%	·	·	-14%	-4%	·
COc1ccccc1CNC(=O)CN1C(=O)COc2ccc(S(=O)(=O)N3CCC(C)CC3)cc21	-18%[46.1 µM]	·	·	-3.3%	14%	5%	·	-30%[46.1 µM]
CC(OC(=O)c1cccn1C)C(=O)Nc1ccc2c(c1)OCO2 (stereo unspecified)	-3%	·	34%	·	·	-16%	-2%	22%[46.1 µM]
CCc1nc2ccc(C(=O)NCCc3ccc(OC)cc3OC)cc2nc1CC	5%[46.1 µM]	·	·	-1.3%	?	-28%	·	·
Cc1cc(C)n(-c2nc(N(c3ccccc3)c3ccccc3)nc(-n3nc(C)cc3C)n2)n1	?	23%	-21%	-1.4%	-13%	?	12%	?
Cc1ccc(-c2nc(CS(=O)CC(=O)NCCN(CC(C)C)CC(C)C)c(C)o2)cc1 (stereo unspecified)	1%	9%	2%[3.69 µM]	3.8%	-8%	-16%	19%	?
N/C(Cc1cccs1)=N\OC(=O)COc1ccccc1Cl	19%	0%	-5%	-3.1%	7%	54%[activator]	-26%	?
O=C(O)CCNS(=O)(=O)c1ccccc1Br	·	-1%	2%	·	·	4%	3%	·
CCOC(=O)c1[nH]c2ccc(OC)cc2c1NC(=S)N1CCN(c2ccccc2OC)CC1	?	3%	-23%	-12%	?	-1%	-1%	?
COc1ccc(NC(=O)CSc2nnc(C3CCCCC3)o2)c(OC)c1	-12%	-10%	-9%	2.1%	-5%	3%	7%	-17%
Cc1nn(-c2ccccc2)c(=S)c2ccccc12	?	2%	-6%	0.3%	-1%	-9%	16%	?
CCOC(=O)c1cnn(-c2nc(C)nc3sc4c(c23)CCC4)c1N	·	-9%	·	3.9%	?	·	-7%	1%
Cc1cccc(CC(=O)NCCN2CCOCC2)c1	9%[46.1 µM]	8%	-1%	·	·	-7%	-1%	19%[46.1 µM]
CC1CCN(S(=O)(=O)c2ccc3c(c2)N(CC(=O)NCc2ccccc2)C(=O)CO3)CC1	14%[46.1 µM]	·	·	-1.4%	-10%	?	·	-9%[46.1 µM]
CC(C)(O)P(C)(=O)c1ccccc1 (stereo unspecified)	30%	?	4%	6.6%	10%	-8%	-4%	2%
COC(=O)CC1C(=O)NCCN1C(=O)c1cc(OC)c(OC)cc1OC (stereo unspecified)	·	9%	-2%	·	·	-2%	1%	·
COCCNS(=O)(=O)c1ccc2c3c(cccc13)C(=O)N2C	11%	5%	-19%	·	·	18%	0%	1%[46.1 µM]
CC1=CC2=NC(=O)/C(=C\c3cccn3CCOc3cc(C)cc(C)c3)C(=N)N2O1	-1%	-11%	-15%	-7.1%	-5%	21%	-32%	-1%
Cc1cc2oc(=O)cc(CN3CCN(Cc4ccccc4)CC3)c2cc1C	·	-2%	-1%	·	·	0%	3%	·
Cn1cc(Cl)c(/C(N)=N/OC(=O)c2ccccc2C(F)(F)F)n1	·	-17%	17%	·	·	65%[activator]	24%	·
Cc1c(N=C2C(=O)Nc3ccccc32)c(=O)n(-c2ccccc2)n1C	·	-7%	-5%	1.5%	-3%	-15%	1%	·
COc1ccc(CN(C)c2ncnc3sccc23)c(OC)c1OC	?	-2%	43%	·	·	?	2%	?
CCCN1C2=C(C(=O)CCC2)C(c2ccc(O)c(Br)c2)C2=C1CCCC2=O	2%	4%	7%	-4.4%	-28%	5%	-10%	7%
CC(=O)c1ccc(N/N=C2/CCCNC2=O)cc1	7%[46.1 µM]	-3%	4%	·	·	-19%	0%	?
c1ccc(-c2noc(COc3ccc4c(c3)OCO4)n2)cc1	-1%	-28%	-14%	-5.5%	-4%	33%[activator]	3%	-13%
N#Cc1cccc(NC(=O)c2cncn2-c2ccccc2)c1	-1%[46.1 µM]	30%	-7%	·	·	-1%	5%	?
O=C(C1=C[C@H](C2CC2)C[C@H](OCCCCO)O1)N1CCN(Cc2ccc3c(c2)OCO3)CC1	·	-4%	8%	·	·	-21%	0%	·
CCCc1nc(SCC(=O)N2CCC(Cc3ccccc3)CC2)c2c(=O)n(C)c(=O)n(C)c2n1	·	-85%	-10%	-7.5%	5%	?	-1%	-1%
COc1cc(OC)cc(C(=O)Nc2nc3ccccc3[nH]2)c1	?	-5%	-23%	-8.5%	5%	-37%	-5%	-14%
CC1=CC(C)(C)N=C(NC#N)N1	2%	0%	-1%	4.3%	1%	-1%	1%	25%

Additional results:
SMILES	Lassa entry inh	NS1 function inh	RE007 growth inh	Cruzain inh Det	Cruzain inh noDet	2A StopGo	SARS PLpro yeast	Marburg entry inh
CC1(C(=O)N2CCN(Cc3ccccc3Cl)CC2)CC1(Cl)Cl (stereo unspecified)	·	-11%	-9%	·	·	25%	4%	·
COc1ccc(CC(=O)OCc2cc3ccccc3[nH]c2=O)cc1	3%	4%	6%	-4.2%	-2%	-3%	27%	22%
Clc1ccccc1Nc1nnc(-c2ccncc2)s1	5µM*	-20%	32µM*	-3.3%	6%	?	-84%	?
O=C(Cc1ccccc1Cl)Nc1nc2ccccc2[nH]1	?	1%	-5%	·	·	34%[activator]	0%	10%
Cc1ccc(CN2C(=O)c3ccccc3Sc3ccc(C(=O)NCCCN4CCOCC4)cc32)cc1	?	-4%	6%	-0.9%	?	?	23%	·
O=C(N/N=C/c1ccc[nH]1)c1ccccc1OCc1ccc(F)cc1	27%[46.1 µM]	-3%	1%	·	·	-22%	-3%	11%[46.1 µM]
O=C(CSc1nnc(NC(=O)c2ccccc2F)s1)Nc1ccccc1F	·	3%	2%	·	·	3%	0%	-3%[46.1 µM]
COC(=O)CCC(=O)N1CCCC(CO)(Cc2ccccc2C)C1 (stereo unspecified)	·	-4%	16%	·	·	-6%	0%	·
Cc1cccc(CN2CCN(C(=O)Cc3ccccc3)CC2)c1	4%[46.1 µM]	-6%	12%	·	·	-14%	-6%	14%[46.1 µM]
CN(C)CCCNC(=O)c1cc(C(=O)c2cccc(Cl)c2Cl)c[nH]1	12%[46.1 µM]	3%	0%	·	·	-11%	1%	?
CCC(=O)C1=C(c2ccc(F)cc2)N(C(=O)CC)n2cnnc2S1	?	·	·	-11%	-15%	-6%	·	·

From PubChem
